# Screening results (PubChem BioAssay)
# TRPML1 ag – human mucolipin-1 channel agonism | 410,000 compounds, 0.12% hits | AID 624414 | activation, % (test concentration not listed) | TRPML1-expressing cells, Ca2+ dye fluorescence, FDSS; host cell line not named in the record; reference of the full effect not given here | Q9GZU1; in the data active = activation above about 50%; inconclusive = about 30% to 50%; inactive = below about 30%; note: 0% is about no effect; the text of the record puts the active cut at 80%
# Target sequence (Q9GZU1 whole entry, looked up): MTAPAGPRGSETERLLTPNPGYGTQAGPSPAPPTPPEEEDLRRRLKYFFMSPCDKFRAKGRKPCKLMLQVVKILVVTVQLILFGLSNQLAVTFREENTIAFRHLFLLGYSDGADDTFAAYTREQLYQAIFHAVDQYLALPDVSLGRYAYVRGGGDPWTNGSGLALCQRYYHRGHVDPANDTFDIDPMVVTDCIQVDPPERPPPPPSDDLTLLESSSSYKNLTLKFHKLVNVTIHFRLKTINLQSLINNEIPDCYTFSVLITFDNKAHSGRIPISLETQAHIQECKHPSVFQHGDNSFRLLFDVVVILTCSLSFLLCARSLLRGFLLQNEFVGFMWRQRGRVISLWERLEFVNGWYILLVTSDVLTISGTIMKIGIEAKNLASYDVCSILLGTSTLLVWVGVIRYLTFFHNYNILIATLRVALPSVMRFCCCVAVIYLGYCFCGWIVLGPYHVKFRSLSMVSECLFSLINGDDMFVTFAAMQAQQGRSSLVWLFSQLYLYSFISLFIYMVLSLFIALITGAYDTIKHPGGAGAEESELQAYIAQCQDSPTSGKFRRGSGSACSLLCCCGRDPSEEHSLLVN
#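 TRPML1-DL cells, Tet-induced overnight (~16 h, 37 degrees C), loaded 45-90 min at room temperature with Ca8 no-wash calcium dye plus quencher. FDSS fluorescence: 10 s baseline, compound pin-transfer, 110 s agonist read, then EC80 54-4 (4uM final) and 110 s antagonist read.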
# Six1-Eya2 inh – inhibitors of human Six1/Eya2 interaction; AlphaScreen GST-Six1/His-Eya2 binding, biochemical; active compounds read low; control for the full effect not named in the record; activity change, % (test concentration not listed); 360,000 compounds, 0.56% hits; AID 651725; in the data active = activity change below about -65%; inconclusive = about -30% to -65%; inactive = above about -30%; note: % is set by controls: 0 for no effect and ±100 for the full control effect
#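 GST-Six1 + His-Eya2 (5X stock: 250/500 nM); Tris pH 8.0, 300 mM NaCl, 0.05% BSA, 0.02% Tween 20; GSH donor/Ni acceptor beads; 1 h 37 °C dark; AlphaScreen readout.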
# CtBP-E1A inh – CtBP/E1A binding inhibition; AID 651724; 340,000 compounds, 0.49% hits; AlphaScreen GST-E1A/His-CtBP binding, 1536-well; active compounds read low; control for the full effect not named in the record; activity change, % (concentration not given with the values); in the data active means activity change below about -65%; inconclusive means about -30% to -65%; inactive means above about -30%; note: % is set by controls: 0 for no effect and ±100 for the full control effect
#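 AlphaScreen with 125 nM GST-E1A and 125 nM His-CtBP (5X stocks) in Tris pH 8.0, 300 mM NaCl, BSA, Tween 20, TCEP. Compounds preincubated 2 h at 37 deg C, then glutathione donor/nickel acceptor beads added for 1 h at 37 deg C in dark.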
# D2 potentiator – potentiates the human D2 dopamine receptor allosterically | potentiation, % (test concentration not listed) | 360,000 compounds, 0.23% hits | AID 624464 | DiscoveRx D2 beta-arrestin cells, luminescence, 90 min; 100% = 57 uM dopamine signal | P14416; active = potentiation of 50% or more; inconclusive = 30% to 50%; inactive = 30% or less;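 note: compound concentration not given in the record; tested on top of an EC20 dose of dopamine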
# Target sequence (P14416 whole entry, looked up): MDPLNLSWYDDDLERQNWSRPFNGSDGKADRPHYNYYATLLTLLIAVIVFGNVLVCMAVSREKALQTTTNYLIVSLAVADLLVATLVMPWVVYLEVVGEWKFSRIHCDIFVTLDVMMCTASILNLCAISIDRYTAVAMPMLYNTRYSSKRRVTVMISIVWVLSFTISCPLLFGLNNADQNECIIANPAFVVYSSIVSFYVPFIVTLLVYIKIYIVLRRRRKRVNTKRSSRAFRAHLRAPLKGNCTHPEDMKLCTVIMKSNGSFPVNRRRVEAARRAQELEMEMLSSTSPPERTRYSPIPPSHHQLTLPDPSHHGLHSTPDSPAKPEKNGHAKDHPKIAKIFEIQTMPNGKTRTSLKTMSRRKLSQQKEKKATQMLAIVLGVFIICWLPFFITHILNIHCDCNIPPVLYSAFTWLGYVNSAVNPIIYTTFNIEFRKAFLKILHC
#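 PathHunter D2 cells, attached overnight at 37 deg C, received compound in DMSO plus dopamine at EC20 (50 nM final) for 90 min at 37 deg C. Beta-arrestin recruitment was read as luminescence after 1 h with detection reagent at ambient temperature.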
# TRPML1 inh – blocks the human TRPML1 channel. AID 624415. activity change, negative = inhibition, % (concentration not given with the values). TRPML1-inducible cells, Ca2+ dye fluorescence, FDSS; active compounds read low; inhibition of EC80 agonist-evoked calcium signal. 390,000 compounds, 0.02% hits. Q9GZU1; in the data active means activity change below about -50%; inconclusive means about -30% to -50%; inactive means above about -30%;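 note: stimulus is agonist 54-4 at its EC80 concentration; % is set by controls: 0 for no effect and ±100 for the full control effect; the text of the record puts the active cut at -80%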
#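 Calcium fluorescence in TRPML1-DL cells induced overnight with Tet: a 110 s read after compound pin addition, then a 110 s antagonist read after challenge with 54-4 at 4 uM final (EC80).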
# TRPV1 potentiator – enhances activation of the human vanilloid receptor TRPV1; Q8NER1; TRPV1-expressing cells, Fluo-8 calcium influx, capsaicin EC20 potentiation; host cell line not named in the record; control for the full effect not named in the record; 320,000 compounds, 0.02% hits; potentiation, % at 8.33 µM; active means potentiation above 80%; inconclusive means 30% to 80%; inactive means below 30%; note: 0% is about no effect
#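 TRPV1-expressing cells were cultured overnight at 35.5C and loaded with Fluo-8 calcium dye for 40 to 90 min at room temperature. After a 10 s baseline, compound was added and calcium influx was read kinetically for 3 min (ex 480/em 520 nm).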
# Active calls of the source: *; u = inconclusive; x = not tested or not shown.
# Sequence of screens: TRPML1 ag | Six1-Eya2 inh | CtBP-E1A inh | D2 potentiator | TRPML1 inh | TRPV1 potentiator
COP(=O)(OC)c1nc(-c2ccccc2)oc1N1CCOCC1
→ 0.2 | -1 | 7 | 2 | 12 | 4
CCCN1CCN(C(=O)CCCNC(=O)c2ccc(Cl)cc2)CC1
→ -0.2 | 4 | 0 | -9 | 19 | 4
Cc1ccc(S(=O)(=O)N2C[C@H]3[C@H]4C(=O)N(c5ccccc5)C(=O)[C@H]4C[C@H](OC(=O)NCc4ccccc4F)[C@@]3(O)C2)cc1
→ -0.4 | 0 | 0 | 0 | 26 | x
Cc1cccc(C)c1NC(=O)CCCSc1nnc(N)s1
→ -1.1 | 4 | 0 | -3 | -3 | 4
CC(=O)NCCCNS(=O)(=O)c1ccc(C)cc1
→ 1.1 | 3 | x | -5 | 20 | -3
Cc1ccc(CNC(=O)c2ccccc2CCc2ccccc2)cc1
→ 0.6 | 26 | 49 | -25 | -4 | -11
CCCS(=O)(=O)n1nc(-c2ccccc2)cc1N
→ -0.4 | 6 | -6 | -2 | -10 | 6
O=C(Nc1cccc(NC(=O)C2CC2)n1)C1CC1
→ -1.0 | -5 | 7 | 2 | 14 | -11
CC1CN(S(=O)(=O)c2cccc(C(=O)NCCc3ccc(S(N)(=O)=O)cc3)c2)CC(C)O1 (stereo not drawn)
→ -0.3 | -19 | -18 | -9 | 11 | x
C[C@@H]1CN([C@H](C)CO)C(=O)CCCn2nncc2CO[C@H]1CN(C)C(=O)Nc1cccc(Oc2ccccn2)c1
→ 1.0 | 6 | -4 | -3 | 36 | x
Cc1ccnc(N2CCCC(C(=O)Nc3ccc(C)c(C)c3)C2)n1 (stereo not drawn)
→ 1.2 | -8 | -3 | -5 | -5 | 0
CC(C)C(=O)Nc1cccc(COc2ccc(CN(CCc3ccccc3)C(=O)OC(C)(C)C)cc2)c1
→ 1.6 | -22 | -4 | -6 | -9 | x
N#Cc1nc(-c2ccc(F)cc2)oc1N1CCCCC1
→ 2.9 | 1 | -14 | -12 | 3 | -8
COC(=O)COc1ccc(Oc2nc(SC)nc(N(C)C)n2)nn1
→ 0.1 | -3 | 2 | -11 | 2 | 1
CCOC(=O)c1c(NC(=O)C2CCCN2S(=O)(=O)c2cccc3nsnc23)sc(C)c1C (stereo not drawn)
→ x | 0 | -16 | -8 | x | x
CCCC1(C(=O)O)NC(c2ccccc2O)C2C(=O)N(c3cccc(Cl)c3)C(=O)C21 (stereo not drawn)
→ -0.1 | 1 | 9 | -7 | 5 | -4
CCNc1nc(N)nc(Oc2ccc(OCC)nn2)n1
→ 0.6 | -1 | 8 | 13 | 10 | 3
CC1(C)CC(=O)C(C=NCCN2CCN(C(=O)c3ccccc3)CC2)=C(O)C1
→ -0.2 | 2 | 6 | -15 | 12 | -16
COc1ccc(NC(=O)CSc2nnc(-c3cccnc3)n2C)cc1
→ x | 1 | -7 | -9 | x | 12
CC(=O)c1cccc(NC(=O)N2CCCC2C(=O)NC2CCCC2)c1 (stereo not drawn)
→ -0.1 | -4 | -12 | -5 | -7 | -2

# Next section:
# Sequence of screens: TRPML1 ag | Six1-Eya2 inh | CtBP-E1A inh | D2 potentiator | TRPML1 inh | TRPV1 potentiator
COc1cc(C#N)ccc1OCC(=O)NCc1cccs1
→ -0.6 | 7 | 1 | -6 | -11 | 15
CN(CCOCCOc1ccc(Cl)cc1Br)Cc1ccccc1
→ 1.8 | -6 | 0 | -16 | 10 | 10
Cn1cncc1COC(=O)c1ccc(Cl)cc1
→ 0.6 | -6 | -3 | -12 | 4 | -9
CCCCN1C(=O)C(O)(CC(=O)c2c(C)n[nH]c2C)c2cc(Br)ccc21 (stereo not drawn)
→ -0.3 | 1 | 7 | -6 | -5 | 16
Cc1cc(C(=O)N/N=C/c2c[nH]c3ccccc23)c(C)o1
→ -0.5 | -19 | -19 | -12 | 24 | 3
CNc1cncc(-c2cccnc2)n1
→ 0.1 | 4 | 1 | -5 | x | x
CC(C)(C)NC(=O)C1N(c2cccnc2)C(=O)C2C(C(=O)Nc3ccccc3)C3(C)C=CC21O3 (stereo not drawn)
→ 0.5 | -5 | -16 | -26 | -5 | -1
C=CCSc1nnnn1-c1ccc(OC)cc1
→ 0.7 | 10 | 7 | -11 | 38 | -13
CCCc1nnc(NC(=O)CCC(=O)NC2CCCC2)s1
→ 3.7 | -2 | x | -3 | 13 | -10
Cn1nc(C(F)(F)F)cc1-c1ccc(/C=C(\C#N)C(=O)c2ccccc2)s1
→ 2.2 | 4 | 12 | -1 | 2 | 16
O=C(/C=C/c1ccc(Br)o1)OCc1nc2ccsc2c(=O)[nH]1
→ -0.2 | u | 2 | -1 | -14 | -6
COc1ccc(Cc2nnc(NCCO)[nH]c2=O)cc1
→ -0.9 | 2 | 4 | -1 | 8 | -1
C=CCN1CCN(C(CCC)c2nnnn2Cc2ccco2)CC1 (stereo not drawn)
→ 1.2 | 4 | -10 | -8 | -3 | -14
O=C(COC(=O)/C=C/c1ccccc1)Nc1nnc(-c2ccccc2)o1
→ 0.6 | u | u | 3 | -14 | 7
COc1ccccc1N1CCN(C(=O)c2ccc(N3CCCC3=O)cc2)CC1
→ -0.9 | 1 | 9 | -1 | 31 | 11
O=c1cc(O)nc(-c2ccccc2)s1
→ 0.1 | 1 | 4 | 2 | 0 | -3
CC(=O)N1CCc2cc(Br)cc(S(=O)(=O)N3CCN(c4ccccn4)CC3)c21
→ -0.5 | 7 | -1 | 2 | -6 | -20
CCCCNC(=O)CNC(=S)N(Cc1ccccc1F)C1CCCCC1
→ 0.6 | -3 | 0 | -2 | 9 | 26
c1ccc(Oc2nc3ccccc3n3cccc23)cc1
→ 1.2 | 3 | 12 | 2 | -2 | -2
COc1ccc2oc(=O)c(-c3cn4ccc(C)cc4n3)cc2c1
→ -0.4 | 1 | 9 | -2 | -9 | 4

# (listing goes on)
# Sequence of screens: TRPML1 ag | Six1-Eya2 inh | CtBP-E1A inh | D2 potentiator | TRPML1 inh | TRPV1 potentiator
CC1CCCN(CC(=O)Nc2ccc(S(=O)(=O)N3CCCC3)cc2)C1 (stereo not drawn)
→ 0.8 | -2 | 0 | -4 | -4 | 2
O=C(O)CN1CCN(C(c2ccccc2)c2ccccc2)CC1
→ -0.2 | -3 | 4 | -4 | 4 | 4
c1ccc(OCCCc2nc(-c3cccnc3)no2)cc1
→ -0.4 | 5 | 0 | 15 | -2 | -6
CCCS(=O)(=O)NC(=O)C1(C)CCN(C(=O)c2ccc(F)c(Cl)c2)C1 (stereo not drawn)
→ -0.6 | 9 | 10 | 0 | x | x
COc1ccc(NC(=O)c2cc3ccccc3cc2OC)cc1
→ 1.8 | 15 | 0 | -13 | 18 | u
CC(=O)n1nc(-c2ccncc2)nc1SCC(=O)Nc1cccc(Cl)c1
→ 2.1 | 7 | -3 | -12 | 11 | 1
Cc1ccc(NC(=O)c2cc(S(=O)(=O)N3CCC4(CC3)OCCO4)ccc2F)cc1
→ -0.6 | -3 | 6 | -4 | -21 | -3
Cn1c(=O)c2ncn(CC(=O)N/N=C/c3ccco3)c2n(C)c1=O
→ 1.2 | 10 | 10 | -6 | 10 | 13
CC(=O)c1cccc(N/C=C\c2nnnn2-c2ccc(F)cc2)c1
→ -0.3 | -1 | 5 | -16 | -19 | -10
O=C(NC1CCS(=O)(=O)C1)/C(=C/c1ccc(Cl)cc1)NC(=O)c1ccccc1 (stereo not drawn)
→ -0.1 | 6 | -4 | 0 | 4 | 5
Cc1ccc(OCCCCn2ccnc2C)c(C)c1
→ -0.3 | -11 | -1 | -22 | 2 | u
Cc1cccc(C(=O)N2CCCC(CCC(=O)N3CCN(c4ccccn4)CC3)C2)c1 (stereo not drawn)
→ 0.5 | -2 | 0 | 7 | -5 | 2
COc1cccc(-n2c(SCC(=O)O)nnc2-c2cccnc2)c1
→ 0.5 | 2 | 11 | 12 | 4 | 4
O=C(Nc1ccc([N+](=O)[O-])cc1)Nc1nc(-c2ccc(Cl)s2)cs1
→ -0.3 | 12 | 7 | -4 | -10 | 11
Cc1ccc(NC(=O)CCn2ccc([N+](=O)[O-])n2)nc1
→ -0.3 | 2 | -14 | -17 | 6 | -5
Cc1ccc(Cn2c(C)c(C(=O)NCC(C)C)sc2=O)cc1
→ -0.9 | 0 | 8 | -4 | x | x
O=C(N/N=C/c1ccccc1Br)c1ccc(CSc2cccc3cccnc23)cc1
→ -0.3 | -18 | u | -5 | u | 7
CN(C)CCC(=O)N1c2ccccc2Sc2ccc(Cl)cc21
→ 1.3 | 7 | -1 | -16 | -13 | 9
NC1=NC(c2cccc(Cl)c2)N(CCc2ccc(F)cc2)C(N)=N1 (stereo not drawn)
→ 1.1 | 3 | -20 | -12 | 42 | -27
c1csc(C2=NNC(=NC3CCCCC3)SC2)c1
→ -1.3 | -13 | -7 | -22 | -9 | -1

# (more compounds)
# Sequence of screens: TRPML1 ag | Six1-Eya2 inh | CtBP-E1A inh | D2 potentiator | TRPML1 inh | TRPV1 potentiator
O=[N+]([O-])c1cc(C(F)(F)F)ccc1NC1CCN(Cc2ccccc2)C1 (stereo not drawn)
→ 4.0 | -4 | 0 | -23 | -1 | -11
COc1ccc2nc(N3C(=O)CNC3=S)sc2c1
→ 0.2 | -12 | 1 | -12 | 22 | -10
[N-]=[N+]=CC(=O)CCCN1C(=O)c2ccccc2C1=O
→ 1.2 | 5 | 9 | -13 | 9 | 1
Cc1cc(C)cc(OCC(O)CN2CCN(Cc3ccc4c(c3)OCO4)CC2)c1 (stereo not drawn)
→ 2.5 | -8 | -4 | -21 | 1 | -5
CCN1C(=O)CC(N2CCN(c3ccc(C(=O)c4ccccc4)cc3)CC2)C1=O (stereo not drawn)
→ 1.3 | -5 | -2 | -1 | -1 | u
Cc1cc(C)c(NS(=O)(=O)c2ccc(NC(=O)CCC(=O)O)cc2)c(C)c1
→ -0.2 | 3 | x | -3 | 11 | u
CC(C)Oc1ccc(C2CCC(=O)NC2=O)cc1 (stereo not drawn)
→ -0.1 | -1 | 11 | -6 | -11 | -3
CCn1c(SCC(=O)NCC(=O)Nc2ccc(F)cc2)nnc1-c1cccs1
→ -0.1 | 1 | 0 | 2 | 7 | -4
COc1cc(/C=C2/C(=O)NN(c3cccc(Cl)c3)C2=O)cc(OC)c1O
→ 1.6 | -3 | 3 | -1 | 31 | u
Cc1cc(C(=O)COC(=O)CNS(=O)(=O)c2ccc3ccccc3c2)c(C)n1-c1ccccc1
→ 2.6 | -18 | -13 | 6 | -9 | 21
CC(=O)Nc1cccc(N2CCCC2=O)c1
→ 0.2 | 5 | 4 | -5 | 2 | 3
